Arbovirus anti: antivirals against arbovirus infection, primary screen, cell-based, full library, 10K replicate subset. arbovirus infection cell-based antiviral screen. inhibition, % at 10 µM. 200,000 tested, 0.37% active;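 active = inhibition from about 30%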;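 note: bluetongue infection of BSR cells; cell survival read as ATP light after 72 h; 0% = infected wells without compound and 100% = uninfected wells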
Mtb betalactam: beta-lactam sensitization of Mtb H37Rv, H37Rv. AID 434955, 2010. M. tuberculosis H37Rv growth with meropenem, percent inhibition; hits of this screen are not shown here. 330,000 tested, 0.27% active. inhibition, % at 25 µM;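 active = about 74% or more and at least 40 points above the plate without the antibiotic, then above 30% in a dose series; inconclusive = first-round hits that could not be retested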;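 note: growth measured after seven days incubation then overnight dye step; 0% = bacteria only wells and 100% = bacteria with antibiotic; twin plates without the antibiotic show which effects depend on it; some results filed as inactive read as strong as hits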
Mtb growth: M. tuberculosis H37Rv growth inhibitors, H37Rv strain (AID 1626); M. tuberculosis H37Rv growth inhibition; higher % means a stronger effect; inhibition, % at 10 µM, or IC50 in µM where a hit was titrated; 220,000 tested, 0.95% active;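 active = confirmed in a dose series; inconclusive = inhibition above 80% but not taken into the dose series; inactive = below 80% or under 30% at every dose of the series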;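 note: bacteria incubated seven days before Alamar blue readout; 0% = bacteria only wells and 100% = bacteria with antibiotic wells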
RecA splice inh: Mtb RecA intein splicing inhibitors, primary screen, biochemical, fluorescence, HTS | AID 2221, 2009 | 290,000 tested, 0.75% active | inhibition, %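 (about 9 µM by stock and volumes)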 | cell-free RecA intein splicing | Protein RecA (Mycobacterium tuberculosis (strain ATCC 25618 / H37Rv)), P9WHJ3; in the data active = inhibition above about 30%; inconclusive = no clear call, values can overlap the other calls;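 note: 0% = vehicle wells and 100% = reference inhibitor control wells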
Target sequence (P9WHJ3 whole entry, looked up, canonical isoform): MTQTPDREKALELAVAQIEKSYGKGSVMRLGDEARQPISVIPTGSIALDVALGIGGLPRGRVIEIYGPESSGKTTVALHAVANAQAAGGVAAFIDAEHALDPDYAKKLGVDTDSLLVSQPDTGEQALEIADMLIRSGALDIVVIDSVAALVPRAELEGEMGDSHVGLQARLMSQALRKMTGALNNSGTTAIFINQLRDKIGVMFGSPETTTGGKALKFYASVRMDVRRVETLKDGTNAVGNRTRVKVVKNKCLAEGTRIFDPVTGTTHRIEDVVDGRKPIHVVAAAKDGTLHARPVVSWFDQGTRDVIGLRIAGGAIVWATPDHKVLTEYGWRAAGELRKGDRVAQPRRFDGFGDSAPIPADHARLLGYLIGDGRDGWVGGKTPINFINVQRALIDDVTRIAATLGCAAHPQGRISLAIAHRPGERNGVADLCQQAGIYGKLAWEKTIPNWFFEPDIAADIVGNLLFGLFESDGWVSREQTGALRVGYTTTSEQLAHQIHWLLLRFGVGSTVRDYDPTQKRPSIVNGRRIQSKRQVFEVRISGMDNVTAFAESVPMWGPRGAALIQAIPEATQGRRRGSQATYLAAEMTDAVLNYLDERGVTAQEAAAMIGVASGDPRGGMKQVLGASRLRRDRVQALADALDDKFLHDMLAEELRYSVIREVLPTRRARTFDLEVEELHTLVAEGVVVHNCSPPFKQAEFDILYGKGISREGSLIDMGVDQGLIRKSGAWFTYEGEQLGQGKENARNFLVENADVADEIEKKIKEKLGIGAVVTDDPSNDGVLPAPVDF
YopH PTP inh: YopH tyrosine phosphatase inhibitors, primary screen, biochemical, fluorescence Ex485/Em525; YopH tyrosine phosphatase [Yersinia enterocolitica]; inhibition, %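 (about 10 µM by stock and volumes)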; 140,000 tested, 0.16% active; AID 898, 2007;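 active = inhibition of 50% or more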;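 note: controls were vehicle for no effect and minimum signal wells for full effect; inactives centre near -20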
Arbovirus anti repeat: second read-out of Arbovirus anti, no call of its own (marks repeat the call); inhibition, %; measured here: 10K subset replicate screen; many hits read low in the repeat;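 first of two repeat runs on a subset; 0% = infected and 100% = uninfected wells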
Active calls of the source: *; ? = inconclusive; . = not tested or not shown. These rows are one share of the data, so the mix of outcomes need not match the whole.

SMILES	Arbovirus anti	Mtb betalactam	Mtb growth	RecA splice inh	YopH PTP inh	others
O=C(C1=C[C@H](c2ccc(C(F)(F)F)cc2)C[C@H](OCCCCO)O1)N1CCN(Cc2ccccc2)CC1	-6.7	12.0	.	4.5	.
COCC1CCCCC1OS(N)(=O)=O (stereo not given)	.	1.2	.	-1.0	.
CC(=O)NC(c1ccccc1)c1cc([N+](=O)[O-])c2cccnc2c1O (stereo not given)	-15.4	29.5	-11.3%	11.5	.
COCCNC(=O)c1onc(CSc2ccc(F)cc2)c1C(=O)NCCOC	.	6.4	-4.0%	-0.6	.
O=c1c2c3c(sc2[nH]c(=S)n1Cc1ccco1)CCC3	.	-1.6	-7.4%	2.2	.
COC(=O)c1sccc1NC(=O)CSc1ccc(Cl)cc1	15.2	2.8	-9.9%	4.9	2.4
CCN(CC)Cc1c(O)c(Cl)cc2c(C)cc(=O)oc12	6.4	.	3.7%	-152.4	.
Nc1nc(NCC2CCCO2)nc(Nc2ccccc2)c1[N+](=O)[O-] (stereo not given)	6.8	-12.9	4.8%	0.1	-11.7
Cc1nn(CCOc2ccccc2)c(=O)n1-c1ccccc1F	6.8	12.5	0.8%	0.2	-38.4
CCOc1ccccc1Nc1nc(N2CCCC2)nc(N2CCOCC2)n1	.	-4.8	3.1%	-0.2	.
O=C(CSc1nn(-c2ccc(Cl)cc2)c(=S)s1)N1CCN(C(=O)c2ccco2)CC1	-7.8	71.8	55.0%	4.1	-24.0
COc1ccc(-c2cc(C)no2)cc1S(=O)(=O)NCc1ccc(OC(C)C)cc1	.	4.6	.	2.3	.
Cc1nc(-c2ccc(NS(C)(=O)=O)cc2)cs1	-0.7	-0.7	3.4%	.	11.2
Cc1nc(CS(=O)(=O)c2ccccc2)cc(Sc2ccc(Cl)cc2Cl)n1	-3.8	-0.1	9.5%	-2.3	-9.3
Cn1c(Cn2c(=O)sc3ccccc32)nnc1SCC(=O)Nc1cccc(Cl)c1	0.5	5.4	0.3%	.	-12.7	Arbovirus anti repeat=-4.9
CCc1ccc(-c2nc(SCC(=O)N(C)C3CCS(=O)(=O)C3)n[nH]2)cc1 (stereo not given)	.	-1.9	.	5.5	.
Clc1ccc(/C=C/c2nc3ccccc3[nH]2)c(Cl)c1	-24.9	16.3	-4.6%	7.0	-33.0
COc1cc(Cl)ccc1OCc1cc(C(=O)N2C[C@]3(C)C[C@H]2CC(C)(C)C3)no1	.	-5.2	.	9.5	.
CC(NC(=O)NCC1CCCO1)(C(F)(F)F)C(F)(F)F (stereo not given)	2.0	18.3	0.7%	7.9	-11.7
C=CCN(CC=C)c1cnn(-c2nc3ccccc3[nH]2)c(=O)c1Cl	-7.4	-0.1	9.7%	-5.4	-19.1
CCOc1ccc(-c2nc(=S)[nH][nH]2)cc1	-10.0	-1.1	-3.1%	-0.1	-26.3
CC(C)(C)OC(=O)C1C(=O)CC(C)(O)C(C(=O)OC(C)(C)C)C1c1ccco1 (stereo not given)	3.7	1.5	4.7%	0.4	-41.0
O=C(CN1CCCCCC1)Nc1ccc(Cl)cn1	.	-8.8	.	-2.0	.
CS(=O)(=O)N1CCN(c2ccc([N+](=O)[O-])c(NCCN3CCOCC3)c2)CC1	1.0	11.2	.	5.2	-32.4
CC(=O)Nc1ccccc1NC(=O)c1ccc(C)c(C)c1	-1.6	-8.1	-3.1%	-2.9	.
O=C1NC(=S)N/C1=C/c1cccc([N+](=O)[O-])c1O	2.0	8.4	-9.8%	1.3	-36.4
Cc1coc2cc3oc(=O)c(CCC(=O)NCCCn4ccnc4)c(C)c3cc12	.	-6.9	.	-0.6	.
C=CCc1ccc(OCC(O)CN2CCN(c3ccccc3)CC2)c(OC)c1 (stereo not given)	.	-7.5	.	1.1	.
CC(C)[C@H](N)c1nnc(SCC(=O)c2ccc(Cl)cc2)o1	-9.0	-3.1	-3.8%	.	-12.9
CC(C)c1ccc(C2C(C#N)=C(N)N3C(=C2C#N)Sc2ccccc23)cc1 (stereo not given)	-2.2	-1.4	-1.8%	-5.9	-23.2
CN(c1cccc(NC(=O)CN(c2ccc(F)cc2)S(C)(=O)=O)c1)S(C)(=O)=O	0.4	1.1	-2.2%	0.0	.
Cc1ccc2nc(N3CCN(C(=O)c4ccco4)CC3)sc2c1	.	-4.7	.	-2.1	.
CCNC(=S)Nc1ccc(C)c(S(=O)(=O)Nc2ccccc2OC)c1	.	-3.3	-2.3%	0.3	.
CCOCCc1nnc(NC(=O)C2CC(=O)N(CCc3ccc(F)cc3)C2)s1 (stereo not given)	.	0.0	.	2.7	.
Cc1ccc(-n2c(-c3cccnc3)n[nH]c2=S)c(C)c1	0.6	0.8	-4.4%	-1.1	-11.9
Cc1nnsc1NC(=O)OCC(C)C	-0.3	8.4	-6.5%	-3.4	-41.8
Nc1nc(SC2c3cccc4cccc(c34)C2NS(=O)(=O)c2ccccc2)n[nH]1 (stereo not given)	21.7	1.6	-5.0%	-1.6	-12.3
O=C(COC(=O)c1ccc(Cl)c(S(=O)(=O)N2CCCCC2)c1)NCc1ccco1	-4.4	0.0	0.4%	5.3	.
CCCS(=O)(=O)c1nc(S(=O)(=O)c2ccc(C)cc2)c(N2CCc3ccccc3C2)s1	-5.1	-8.7	-0.9%	12.7	-6.3
COc1ccc(-n2nnc3c(SCC(=O)Nc4ccccc4F)ncnc32)cc1	-8.1	1.9	-5.2%	-2.4	.
COc1cccc(N2CC(NC(=O)c3ccc4ccccc4c3)CC2=O)c1 (stereo not given)	.	-3.6	.	-0.8	.
Cc1ccc2nc(S(=O)(=O)O)[nH]c2c1	13.7	7.2	-9.9%	6.2	-23.3
N#Cc1c(N)c(C(=O)c2ccc(Br)cc2)n2c1CCC2	4.6	2.6	6.7%	1.5	1.7
COc1ccc(C(C#N)(CC(=O)O)c2cnccn2)cc1OC (stereo not given)	.	-2.4	.	1.7	.
Brc1cccc(-c2cnco2)c1	-0.7	-5.2	2.3%	0.3	.

Quoted at random: 3 records from the list
SMILES	Arbovirus anti	Mtb betalactam	Mtb growth	RecA splice inh	YopH PTP inh	others
CCOCCc1nnc(NC(=O)C2CC(=O)N(CCc3ccc(F)cc3)C2)s1 (stereo not given)	.	0.0	.	2.7	.
Brc1cccc(-c2cnco2)c1	-0.7	-5.2	2.3%	0.3	.
Cc1ccc2nc(S(=O)(=O)O)[nH]c2c1	13.7	7.2	-9.9%	6.2	-23.3

The main list resumes, starting three compounds before the break.
SMILES	Arbovirus anti	Mtb betalactam	Mtb growth	RecA splice inh	YopH PTP inh	others
N#Cc1c(N)c(C(=O)c2ccc(Br)cc2)n2c1CCC2	4.6	2.6	6.7%	1.5	1.7
COc1ccc(C(C#N)(CC(=O)O)c2cnccn2)cc1OC (stereo not given)	.	-2.4	.	1.7	.
Brc1cccc(-c2cnco2)c1	-0.7	-5.2	2.3%	0.3	.
CCSc1nnnn1-c1ccccc1	4.0	1.8	5.7%	.	0.5
COc1cccc(CN2CC(O)=C(c3nc(-c4ccc(Cl)cc4)cs3)C2=N)c1	-3.2	-9.4	.	.	-15.3
O=C(NCCc1ccccc1)c1n[nH]c2ccccc12	-9.2	3.1	0.6%	0.5	.
O=C(Nc1ccc2nc(-c3ccco3)c(-c3ccco3)nc2c1)N1CCN(c2ccccn2)CC1	-10.8	2.6	52.3%	-61.3	-8.1
CCOc1ccc(C(=O)NCCC(=O)N2CCC3(CC2)NCCc2[nH]cnc23)cc1OCC	.	0.7	.	-1.9	.
CC1(C(=O)c2ccccc2)C2c3c(ccc4ccccc34)OC(=O)C21C(=O)N1CCOCC1 (stereo not given)	6.9	-20.0	-9.5%	-0.3	-36.9
COc1cccc(CN(C)C(=O)c2ccc(NS(=O)(=O)c3ccc(F)cc3)cc2)c1OC	.	-11.2	.	0.2	.
O=C(CSCc1c(Cl)cccc1Cl)NN1C(=O)c2ccccc2C1=O	0.9	-19.4	-4.7%	-5.8	9.8
CCCCNC(=O)c1c[nH]c2ccc(S(=O)(=O)Nc3ccc(OCC)cc3)cc2c1=O	-6.6	9.2	.	0.6	-54.0
O=C(O)C(O)c1ccco1 (stereo not given)	7.4	.	-1.9%	.	-20.9
COc1ccc(N(C)S(=O)(=O)c2cccc(C(=O)OC(C(=O)Nc3cc(C)cc(C)c3)c3ccccc3)c2)cc1 (stereo not given)	-1.9	-11.1	0.8%	1.8	-22.3
COc1ccccc1CNC(=O)c1ccc(CS(=O)Cc2cccc(Cl)c2)o1 (stereo not given)	.	-3.3	.	3.2	.
N#CC1=C(N)Oc2cc(Nc3ccccc3)ccc2C1c1ccncc1 (stereo not given)	-36.6	7.0	-6.2%	6.7	-46.1
COC(=O)c1sc(NC(=O)c2ccc(OC)cc2OC)nc1C	.	3.8	1.0%	-4.5	36.7
COC(=O)c1cn(-c2ccccc2)nc1C(=O)OC	-4.2	-8.8	-2.6%	2.5	-21.8
CCC(=O)Nc1nnc(SCC(=O)c2ccc3c(c2)Cc2ccccc2-3)s1	-5.8	-0.3	7.4%	-1.9	-20.9
Cc1c(/C=N/NC(N)=O)c2ccccn2c1C(=O)c1ccc(F)cc1	2.9	3.4	8.6%	-1.8	-21.0
Cc1ccc(-n2nnnc2SCC(=O)c2cc(C)n(-c3cc(C)on3)c2C)c(C)c1	-5.9	52.0	4.0%	-3.7	-46.5
Cc1nnc(NC(=O)CSc2nc3c(c(=O)n(C)c(=O)n3C)n2C(C)C)s1	2.5	-4.0	-2.6%	-2.0	.
CSCCC(NC(=O)c1cc([N+](=O)[O-])cc([N+](=O)[O-])c1)c1nc2ccccc2[nH]1 (stereo not given)	-8.9	100.0	5.37µM*	2.6	-38.8
O=C1c2ccccc2C(=O)N1CCCc1nc2ccccc2c(=O)n1-c1cccnc1	3.2	-9.6	-3.0%	0.2	-38.6	Arbovirus anti repeat=3.7
COc1ccc(NC(=O)CC(c2ccco2)C(C)C)cc1 (stereo not given)	.	0.7	.	2.1	.
CCN1CCCC1CNC(=O)C1CCN(C(=O)c2cc3sccc3n2Cc2ccc(F)cc2)CC1 (stereo not given)	-23.4	-4.3	-0.3%	2.1	.
CCCCCCN1C2=NCCCN2c2ccccc21	.	-5.7	-4.8%	0.3	.
CC(=O)Nc1ccc(NC(=O)CSc2cn(CC(=O)N3CCOCC3)c3ccccc23)cc1	.	-5.1	.	1.1	.
CCn1cnc2c1c(=O)n(CC(=O)O)c(=O)n2Cc1ccccc1	.	-7.8	.	-1.6	.
COc1ccccc1/C=C1/C(=N/O)C2CCN1CC2	-9.2	6.8	6.7%	-1.2	-37.3	Arbovirus anti repeat=-1.0
COCC(C)N=C1NN=C(c2ccc(NC(C)=O)cc2)CS1 (stereo not given)	3.9	1.6	-3.8%	-2.1	.
CC1CC(C)CN(C(=O)CCC(=O)Nc2nnc(C3CCCCC3)s2)C1 (stereo not given)	.	1.2	.	-3.2	.
Cc1ccc(Nc2cc(C)nc(-c3ccccc3O)n2)cc1	-0.5	97.4	8.7%	-4.9	1.7
O=C(NCc1ccccc1)c1cccc(COc2cccc(Cl)c2)c1	-27.5	7.9	14.2%	25.2	-34.6
O=c1oc2ccccc2cc1-c1csc(Cc2nc(-c3ccc(Br)cc3)cs2)n1	-9.2	?	-3.4%	6.0	-42.5
CCOCCc1nn2c(=O)cc(CSCC(=O)Nc3cccc(C)c3C)nc2s1	.	0.7	.	-4.8	.
CCOc1ccc(NC(=O)CN(C)C(=O)c2c(C)nn(-c3ccc(F)cc3)c2Cl)cc1OCC	.	2.4	.	1.6	.
Cc1cccc(N(Cc2cc3ccc(C)cc3[nH]c2=O)C(=O)c2ccco2)c1	.	-4.1	-0.5%	1.5	.
Cc1cc(C)cc(OCC(=O)N/N=C/c2ccccn2)c1	.	-1.1	-5.8%	-3.3	.
Cc1nn(-c2ccc(F)cc2)c(C)c1CN1CCN(CCC(C)C)C(CCO)C1 (stereo not given)	-7.6	-5.7	2.2%	-9.6	.
COc1ccc(-c2nnn(CC(=O)Nc3sc4c(c3C#N)CCCC4)n2)cc1	-15.1	-5.6	-5.2%	6.7	-29.2
COc1ccc(Cl)cc1N(CC(=O)Nc1ccc2c(c1)OCCO2)S(C)(=O)=O	-2.3	-4.2	-4.2%	.	-3.0	Arbovirus anti repeat=-2.4
CC(=O)Nc1cccc(C(=O)OCC(=O)NC(=O)Cc2ccccc2)c1	.	1.9	.	-1.6	.
Fc1cccc(Nc2nc(N3CCOCC3)nc(N3CCOCC3)n2)c1	.	-4.6	.	0.9	.
